Rango-impB inh – inhibitors of Rango-importin beta complex formation. Q14974. Rango CFP/YFP FRET sensor + importin beta, 45 min. Potency, µM (highest dose often 92.2 µM), without a hit: top-dose inhibition of complex formation. 0.031% of 340,000 active. AID 540263; active = rising FRET ratio curve, often small or poorly fitted; inconclusive = mostly compound fluorescence or quenching in the first reads; inactive = flat curves in all reads;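 further: potency means the concentration at half of the fitted maximal effect; 0% = DMSO wells and 100% = buffer wells lacking importin beta; nearly all actives have a fitted effect of over 15% in size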
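Inhibition scored from the CFP 486 nm/YFP 530 nm FRET ratio 45 min after adding 0.125 microM importin beta to 50 nM Rango biosensor preincubated 5 min with compound (room temperature, PBS with DTT, Tween-20, BSA). No-importin wells as positive control.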
GLA inh pH 4.5 – inhibitors of human alpha-galactosidase A at pH 4.5 | P06280 | activity change, negative = inhibition, % at 105 µM | 230,000 tested, under 10 active | purified enzyme, 4-MU-alpha-Gal fluorescence, pH 4.5 | AID 1467; inconclusive = small, poorly fitted or top-dose-only inhibition, or a rising curve; inactive = flat fitted curve, though single readings scatter; no compound was filed as active;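 further: 0% = full activity with enzyme and -100% = basal without enzyme; dose as in the result columns while the protocol names 77 µM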
Target sequence (P06280 whole entry, looked up): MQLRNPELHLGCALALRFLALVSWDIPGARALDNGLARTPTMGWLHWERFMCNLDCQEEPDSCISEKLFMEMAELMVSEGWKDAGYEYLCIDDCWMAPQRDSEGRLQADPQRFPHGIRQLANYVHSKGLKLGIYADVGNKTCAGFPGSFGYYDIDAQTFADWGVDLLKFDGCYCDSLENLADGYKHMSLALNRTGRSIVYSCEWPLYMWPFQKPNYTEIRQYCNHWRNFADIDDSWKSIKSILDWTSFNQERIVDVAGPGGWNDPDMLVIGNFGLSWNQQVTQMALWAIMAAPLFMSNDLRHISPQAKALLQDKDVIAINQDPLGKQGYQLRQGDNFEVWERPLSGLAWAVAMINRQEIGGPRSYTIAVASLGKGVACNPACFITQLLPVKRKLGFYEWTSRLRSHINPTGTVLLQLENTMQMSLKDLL
Rango release inh – inhibitors of RanGTP-induced Rango-importin beta complex dissociation | O95149+P62826 | Biochemical FRET Rango-importin beta, RanGTP-induced dissociation | Potency, µM (highest dose often 46.1 µM), for inactives: at the highest dose activity change, negative = inhibition | 0.071% of 340,000 active; active means falling FRET ratio curve, often poorly fitted, with flat reads before Ran was added; inconclusive means other falling curves, or compound fluorescence or quenching; inactive means flat or rising ratio curve;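 further: potency means the concentration at half of the fitted maximal effect; % of control where 0% means no effect; nearly all actives have a fitted effect of over 45% in size; -100% = wells without RanGTP and RCC1; the record marks most hits as doubtful in a second field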
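Rango/importin beta premix (0.1/0.25 uM final), PBS + 1 mM DTT + 0.02% Tween-20 + 0.1% BSA; cpd 5 min RT; FRET pre-read; + RanGTP-RCC1 (0.6 uM Ran, 2 mM GTP, 0.2 uM RCC1); 45 min RT; FRET post-read, ex 430, em 486/530 nm.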
miR-21 FLuc – miR-21 reporter, rising signal | 340,000 tested, under 10 active | Potency, µM (highest dose often 38.3 µM), for inactives: at the top dose reporter change, positive = more light | HeLa miR-21 FLuc reporter, luciferase, 48 h | AID 2288; active = well fitted rising curve with a large enough effect; inconclusive = small, poorly fitted or top-dose-only effect; inactive = no such curve, though single readings can be large or run the other way;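 further: % of control where 0% means no effect; miR-21 action dims this reporter so a rising signal means less miR-21 action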
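HeLa cells stably expressing CMV-driven firefly luciferase with a downstream miR-21 binding sequence, endogenously expressing miR-21, were treated with titrations (up to about 40uM final) for 48 hours at 37 degree Celsius. Luciferase luminescence was read after lysis.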
Starred values were filed as active, the others as inactive; u = inconclusive; x = no result given; & = joins results of further samples.

SMILES	Rango-impB inh	GLA inh pH 4.5	Rango release inh	miR-21 FLuc
COc1ccc(N2CC(C(=O)NCCC3=CCCCC3)CC2=O)cc1 (centres undefined)	0.9%	-8.3	-6.4%	-3.3%
CCN(C(=O)CSc1nc2ccc(OC)cc2[nH]1)C1CCS(=O)(=O)C1 (centres undefined)	-0.1%	x	-5.0%	x
CSCC(=O)NCC1(N(C)Cc2ccccc2)Cc2ccccc2C1	-0.4%	x	2.9%	-1.0%
O=C(/C=C/c1ccccc1Cl)c1cccnc1	1.8%	-4.1	-15.5%	u
O=C(NN=C1CCCC1)c1ccccc1OCCOc1ccccc1	-3.1%	-0.2	-17.2%	3.3%
COc1ccc(OC)c(/C=N/NC(=O)c2cc3c(OC)cc(OC)cc3[nH]2)c1	3.9%	0.6	-8.2%	26.2%
COc1c2ccoc2c(OC[C@@H](OC(C)=O)C(C)(C)O)c2oc(=O)ccc12	u	x	-4.2%	x
COc1ccc(CCNC(=O)c2ccc(CN3CCOCC3)cc2)cc1	4.4%	-13.4	1.5%	3.9%
Cc1ccc(NS(=O)(=O)c2ccc(C(=O)N3CCN(c4ccccn4)CC3)cc2)cc1	2.6%	0.6	-3.6%	25.2%
O=[N+]([O-])c1ccc(S(=O)(=O)N2CCN=C2SCc2ccc(F)cc2)cc1	2.1%	x	-5.5%	4.6%
Clc1ccc(-n2nnnc2Sc2ncnc3sccc23)cc1	-0.4%	x	7.1%	x
Cc1ccc(C)c(S(=O)(=O)N(C)c2ccc(OC(=O)C3CCN(C(=O)c4ccc(F)cc4)CC3)cc2)c1	0.0%	x	u	x
CCN(CC)C(=O)C1CCN(S(=O)(=O)c2c(C)noc2/C=C/c2cccc(C)c2)CC1	0.8%	x	1.1%	7.4%
CCc1ccc(OCC(=O)Nc2cccc3nsnc23)cc1	u	5.9	-19.1%	-11.6%
COC(=O)C1=C(C)N(c2ccc(C)cc2)/C(=C/c2ccc(O)cc2)C1=O	-0.5%	-10.3	10.4%	-3.0%
Cc1ccccc1NS(=O)(=O)c1nnc(NC(=O)C(C)C)s1	-1.3%	x	-0.7%	-0.5%
Cc1ccc2nc(N3CCN(c4cccc(C)c4C)CC3)c3nnnn3c2c1	u	1.7	-29.6%	0.5%&-6.5%
CC1(C)NC(C)(C)C(O)(C(N)=O)C1=O (centres undefined)	1.2%	-3.7	5.1%	-0.1%
CCCNC(=O)NC(=O)CSc1nc2ccccc2n1CC(C)C	-1.3%	2.6	-13.5%	-3.9%
Cc1cc(CSc2ccccc2)ccc1NC(=O)COc1ccccc1C	4.5%	3.2	12.8%	0.0%
C=CCSc1nc(N)c(NC(=O)c2ccco2)c(=O)[nH]1	1.1%	x	1.6%	x
COc1ccc(-c2c(C)nc3c(-c4ccsc4)cnn3c2N)cc1	1.0%	x	0.1%	-72.8%
COc1ccc2sc(-c3ccccc3OC)c(-c3ccc(OCCN4CCOCC4)cc3)c2c1	3.1%	x	-2.8%	x
Cn1c(=O)c2c(-c3ccc(OC(F)F)cc3)cc(-c3ccccc3)nc2n(C)c1=O	-2.8%	-2.8	11.8%	0.4%
COC(=O)c1[nH]c2cc(OC)c(OC)cc2c1/C=N/Nc1ccccc1	u	x	u	5.3%

Some entries already given with just miR-21 FLuc and Rango release inh.
canonical_smiles | miR-21 FLuc | Rango release inh
COc1ccc(CCNC(=O)c2ccc(CN3CCOCC3)cc2)cc1 | 3.9% | 1.5%
Cc1ccc(NS(=O)(=O)c2ccc(C(=O)N3CCN(c4ccccn4)CC3)cc2)cc1 | 25.2% | -3.6%

Full records as entered above:
COc1ccc(OC)c(/C=N/NC(=O)c2cc3c(OC)cc(OC)cc3[nH]2)c1 in the list: Rango-impB inh = 3.9%; GLA inh pH 4.5 = 0.6; Rango release inh = -8.2%; miR-21 FLuc = 26.2%
Cc1ccc2nc(N3CCN(c4cccc(C)c4C)CC3)c3nnnn3c2c1 in the list: Rango-impB inh = u; GLA inh pH 4.5 = 1.7; Rango release inh = -29.6%; miR-21 FLuc = 0.5%&-6.5%

Other results
SMILES	Rango-impB inh	GLA inh pH 4.5	Rango release inh	miR-21 FLuc
CCCCn1c(Nc2ccccc2)nc2ccccc21	1.2%	4.3	-17.3%	-1.0%
CC1CC(=O)Nc2ccccc2N1C(=O)COc1ccc2ccccc2c1 (centres undefined)	0.3%	x	-16.9%	x
O=C(NCc1ccc2c(c1)OCO2)C(=O)NCC(c1ccco1)N1CCN(c2ccccc2)CC1 (centres undefined)	-4.4%	-1.4	5.4%	18.3%
Cc1ncoc1C(=O)Nc1nccs1	-1.7%	-6.8	15.2%	-6.0%
CCNC(=S)N/N=C/c1ccc(C(=O)O)cc1	0.3%	-5.1	21.5%	-1.6%
CCOc1ccc(S(=O)(=O)Nc2cccc(-c3ccc(N4CCCCCC4)nn3)c2)cc1	1.8%	x	0.0%	-41.5%
O=C(N/N=C/c1ccc([N+](=O)[O-])o1)c1ccccc1-n1cccc1	1.3%	x	-6.1%	u
O=C(Nc1ccccc1)C1=C[C@@H](C2CCCCC2)C[C@@H](OCCCCO)O1	-1.4%	1.4	-9.1%	-49.8%
CC(=O)Oc1ccc(-c2csnn2)cc1	-0.4%	-8.7	39.2%	0.1%
COCC1CCN(Cc2nc(-c3ccc(OC)cc3)no2)CC1	-3.7%	5.8	-3.5%	-17.0%
COc1cc(-c2[nH]ncc2CN2CCc3sccc3C2)cc(OC)c1OC	0.0%	8.8	-5.2%	4.2%
CCOc1ccccc1NC(=S)C(=C([O-])c1ccc2c(c1)OCCO2)[n+]1ccc(CC)cc1	-0.3%	x	7.7%	x
CCN(CC)CCN(C(=O)c1ccc2c(c1)OCCO2)c1nc2ccc(C)cc2s1	0.4%	x	-3.3%	-19.4%
O=c1cc(N2CCN(Cc3ccccc3)CC2)[nH]c(=O)n1-c1ccc(Br)cc1	-1.1%	16.8	5.5%	-9.9%
COc1cccc(C2C(C(=O)c3cc4ccccc4o3)=C(O)C(=O)N2CCN2CCOCC2)c1 (centres undefined)	u	x	-26.3%	-0.4%
CCOc1ccccc1CN1C(=O)c2ccccc2C1C(=O)NCC1CCCO1 (centres undefined)	-1.1%	-2.2	23.8%	-1.2%
O=C(O)CCCn1cc(NC(=O)c2sc3ccccc3c2Cl)cn1	0.2%	x	-12.2%	5.7%
CCC(C)n1c(-c2cccc(S(=O)(=O)N(CC)CC)c2)n[nH]c1=S (centres undefined)	-0.5%	-10.0	-12.0%	-3.2%
Cc1cccc(C(=O)NCC(=O)OCCOc2ccccc2Cl)c1	-4.1%	x	7.9%	x
COc1cc(/C=C/C(=O)OCC(=O)NC(C)c2ccccc2)cc(OC)c1OC (centres undefined)	-1.8%	x	7.0%	x
CC(NC(=O)CN1CCN(S(=O)(=O)c2ccc(Br)cc2)CC1)c1ccccc1 (centres undefined)	2.4%	x	2.8%	x
O=C(Nc1ccnn1C1CCN(Cc2ccc3nonc3c2)CC1)c1cccc(F)c1	5.4%	x	26.0%	15.4%
CSc1ccccc1NC(=O)CCn1c(=O)sc2ccccc21	-2.7%	-1.9	-0.6%	-14.3%
CCOc1cc(C)c(S(=O)(=O)Nc2ccc3cn[nH]c3c2)cc1C	u	-20.2	0.2%	19.4%
CCCN(CC(=O)Nc1ccccc1C)C(=O)C1CCN(S(=O)(=O)c2ccc3c(c2)OCCO3)CC1	-3.6%	x	-7.9%	x

Additional structures follow.
SMILES	Rango-impB inh	GLA inh pH 4.5	Rango release inh	miR-21 FLuc
Cc1ccc(S(=O)(=O)NCCCN2CCOCC2)cc1C	1.8%	6.9	0.7%	-6.5%
CCOC(=O)c1nnn(CC(=O)Nc2cccc(Cl)c2C)c1C(=O)OCC	u	-1.4	4.5%	1.7%
COc1cccc(C(=O)N/N=C2/SCC(=O)N2CCc2ccc(OC)c(OC)c2)c1	2.2%	1.1	0.0%	6.6%
COc1ccc(CNC(=O)C2CCCN(S(=O)(=O)c3c(C)n[nH]c3C)C2)cc1 (centres undefined)	2.2%	3.6	-5.8%	-1.7%
CC(=O)Nc1c(C)nn(-c2ccc(C)c(C)c2)c1C	0.7%	1.8	1.8%	-9.2%
CCOC(=O)c1[nH]c(C)c(C(=O)NCCCN2CCOCC2)c1C	-0.3%	6.4	-11.1%	0.8%
Cc1cccc(OCCOC(=O)C2CCN(S(=O)(=O)c3ccc(C)c(C)c3)CC2)c1	-4.3%	x	-0.1%	-7.4%
C1=C(CCNc2ncnc3c2cnn3-c2ccccc2)CCCC1	1.5%	-11.8	3.6%	-50.6%
CCc1nnc(NC(=O)CCC(=O)Nc2ccc(C)cc2)s1	3.7%	x	-10.4%	0.8%
Cc1nnc(SCC(=O)Nc2ccccc2F)n(N)c1=O	0.5%	x	19.5%	3.6%
COc1ccccc1-c1c(C(F)(F)F)oc2cc(OC(=O)c3ccccc3[N+](=O)[O-])ccc2c1=O	-1.7%	1.8	9.3%	-11.0%
COC(=O)[C@]12C(=O)NC[C@H](CN1c1ccc(Cl)c(C)c1)N2C	2.0%	x	21.8%	x
Cc1ccn(Cc2n[nH]c(=S)n2Cc2ccccc2)n1	1.1%	1.0	-3.2%	0.1%
CC1(C)CC(c2csc(N)n2)CCO1 (centres undefined)	1.8%	-2.5	-8.1%	-2.3%
COc1ccc(N(CC(O)CN2CCOCC2)S(=O)(=O)c2ccc(C)cc2)cc1 (centres undefined)	-4.5%	x	-6.1%	7.4%
CCCn1c(N)c(N(C)C)c(=O)n(CC(=O)Nc2ccc(OC(F)(F)F)cc2)c1=O	1.2%	-3.3	0.2%	-10.0%
CC(=O)Nc1ccc2c(c1)Cc1cc(N3C(=O)C=CC3=O)ccc1-2	-4.7%	x	-3.8%	x
CC(C)c1[nH]nc2c1C1(CCN(Cc3ccccc3)CC1)C(C#N)=C(N)O2	u	4.7	u	-6.0%
C/C(=N/OC(=O)c1ccc(C(F)(F)F)cc1)c1oc(C)nc1C	4.6%	-21.0	5.7%	-6.9%
Cn1c(N)c(C(=O)CSc2ccccn2)c(=O)n(C)c1=O	-0.4%	-4.2	-13.7%	-57.3%
O=C(COc1ccc2c3c(c(=O)oc2c1)CCCC3)N1CCN(c2ccccc2)CC1	-3.5%	x	u	-0.3%
COC(C[C@H]1O[C@@H]1C(=O)[C@H](C)OCc1ccccc1)OC	4.4%	x	13.5%	x
CCOc1ccc(CCNC(=O)COC(=O)/C=C/c2ccc(OCC#N)c(OC)c2)cc1OCC	-0.7%	2.4	2.2%	0.7%
Cc1ccc(OCc2ccc(C(=O)NNC(=S)NCC3CCCO3)o2)c([N+](=O)[O-])c1 (centres undefined)	6.9%	x	10.3%	-2.9%
CCOc1ccc(/C=N/NC(=O)CCC(=O)Nc2ccc(F)cc2)cc1	2.2%	x	4.4%	-4.1%

More structures follow.
SMILES	Rango-impB inh	GLA inh pH 4.5	Rango release inh	miR-21 FLuc
C/C(=N/NC(=O)c1ccc(C)s1)c1cccnc1	1.6%	x	-5.8%	-38.9%
O=C(CN1CCC(c2nc3ccccc3s2)CC1)NCc1ccccc1	0.3%	0.3	1.9%	3.9%
COc1cccc(Nc2ncnc3c2cnn3C)c1	2.7%	4.1	-7.7%	-28.3%
CCOC(=O)c1csc(NC(=O)c2cccs2)n1	-5.0%	x	12.7%	-37.8%
O=S(=O)(c1ccccc1)N(CC(O)CN1CCCC1)c1ccccc1 (centres undefined)	-0.3%	x	2.6%	-7.6%
Cc1ccc(CNC(=O)CN2c3cccc4cccc(c34)S2(=O)=O)cc1	u	x	-16.2%	x
Nc1ccc(N2CCN(C(=O)c3ccco3)CC2)cc1	0.3%	10.2	3.9%	-12.3%
COc1ccccc1NC(=O)c1cc(C(=O)Nc2ccccc2OC)n(C)n1	2.5%	x	-4.8%	x
CC(C)CN1CN(S(=O)(=O)c2cccs2)c2nc3ccccc3nc21	x	1.6	x	-20.2%
COC(=O)COc1ccc(S(=O)(=O)Nc2ccc(NC(C)=O)cc2)cc1C	0.2%	0.3	2.7%	0.6%
Cc1c(C(=O)O)sc2ncn(C)c(=O)c12	-1.2%	5.3	-10.4%	-6.4%
O=S(=O)(c1ccccc1)c1nc(-c2ccco2)oc1NCCN1CCOCC1	0.2%	-1.5	1.5%	2.2%
O=C1CC(c2cc(-c3ccccc3)no2)C1	5.1%	x	10.1%	-48.1%
CC(=O)Nc1ccc(N2CCN(Cc3ccccc3)CC2)cc1	0.1%	x	11.7%	-6.4%

A portion of the library. The share of hits here may be higher or lower than overall.
